# Source: PubChem BioAssay (several laboratories)
# PABP polyA inh: PABP poly(A) RNA binding inhibitors, primary screen, biochemical, fluorescence polarization, uHTS; Polyadenylate-binding protein 1 (Homo sapiens), P11940; inhibition, % at 35 µM; 290,000 compounds, 1% hits;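 active means 50% or more with normal probe brightness, or confirmed in later tests; about a fifth of its hits are not listed in these tables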;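 further: calls also rest on retests at 20 µM and on dose response follow-up; controls were probe without protein and protein plus probe with vehicle; some compounds called inactive have numbers as strong as hits; many hits fall short of the cut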
# Target sequence (P11940 whole entry, looked up): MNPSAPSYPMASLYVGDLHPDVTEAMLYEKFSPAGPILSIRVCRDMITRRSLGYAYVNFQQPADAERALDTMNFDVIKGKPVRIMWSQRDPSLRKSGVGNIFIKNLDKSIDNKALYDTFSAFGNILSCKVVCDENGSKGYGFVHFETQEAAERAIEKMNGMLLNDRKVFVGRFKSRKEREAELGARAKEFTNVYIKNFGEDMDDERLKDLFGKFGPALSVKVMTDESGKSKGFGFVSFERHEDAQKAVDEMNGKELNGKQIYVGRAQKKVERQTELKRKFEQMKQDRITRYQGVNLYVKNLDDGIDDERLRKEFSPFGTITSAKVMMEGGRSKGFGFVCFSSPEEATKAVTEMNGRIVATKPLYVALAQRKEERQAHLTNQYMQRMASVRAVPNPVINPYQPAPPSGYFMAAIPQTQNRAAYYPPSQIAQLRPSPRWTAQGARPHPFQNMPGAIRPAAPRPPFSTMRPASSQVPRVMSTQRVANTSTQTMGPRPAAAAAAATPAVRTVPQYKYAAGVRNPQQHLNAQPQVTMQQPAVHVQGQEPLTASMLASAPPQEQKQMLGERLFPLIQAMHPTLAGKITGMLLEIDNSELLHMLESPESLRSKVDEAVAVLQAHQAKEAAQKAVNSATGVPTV
# Env fusion inh: inhibitors of HIV-1 Env-driven cell-cell fusion, primary screen, HeLa-JRFL effector, CEM21 target cells, luciferase; inhibition, % at 12.3 µM; 360,000 compounds, 1.1% hits;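 active means mean replicate inhibition score of at least 50 and every replicate individually at or above 50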;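 further: 0% = plate neutral controls and 100% = maraviroc near 300 nM; one replicate is shown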
# UUG fidelity: modulators of yeast start codon fidelity, primary screen, whole organism, S. cerevisiae, single point, plate reader; S. cerevisiae UUG-firefly luciferase reporter, luminescence/redox ratio; activity score, % at 18.7 µM; 350,000 compounds, 0.13% hits;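 active means replicate mean at a twofold rise or more, about +100% in these data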;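 further: firefly luciferase made from a UUG start codon reports start codon fidelity; reporter light over untreated wells divided by growth signal over untreated wells; some hits fall short of that in this replicate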
# CSC inhib: cancer stem cell viability inhibitors, primary screen, luminescence; cancer stem cell-like cells viability; inhibition, % at 7.5 µM; 300,000 compounds, 1.1% hits; AID 2717, 2010;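 active means mean at 75% or more and at least half the replicates too; tested in HMLE shEcad cells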;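 further: 0% = median of negative and 100% = median of positive control wells; the first replicate is given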
# eIF4H FP inh: human eIF4H binding inhibitors, primary screen, translation initiation inhibitor project, biochemical, uHTS, fluorescence polarization | Eukaryotic translation initiation factor 4H (Homo sapiens), Q15056 | eIF4H fluorescence polarization binding assay | inhibition, % at 35 µM | 290,000 compounds, 0.94% hits | AID 2012, 2009;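 active means 50% or more with normal probe brightness, or confirmed in later tests; about a fifth of its hits are not listed in these tables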;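 further: calls also rest on retests at 20 µM and on dose response follow-up; 0% = protein and probe with vehicle and 100% = probe without protein; strong numbers were not always called active; many hits fall short of the cut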
# Rce1 inhib: yeast Rce1p protease inhibitors, primary screen, biochemical, fluorescence, cell-free homogeneous | calls only | CAAX prenyl protease 2 (Saccharomyces cerevisiae (strain ATCC 204508 / S288c)), Q03530 | yeast membranes, quenched prenylated peptide cleavage fluorescence | 290,000 compounds, 0.27% hits;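 active means fall in fluorescence gain of 50% or more versus controls, with final raw signal at or below 3038400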;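 further: plate controls were neutral control wells for no effect and wells lacking membranes for full effect; tested at 10 µM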
# MT1-MMP act inh: blockers of MT1-MMP proenzyme processing, primary screen, HT1080 RFP-PRO-GFP cells, GFP/RFP fluorescence. Matrix metalloproteinase-14 (Homo sapiens), P50281. GFP/RFP ratio fluorescence, overnight; percent of plate control window, DMSO zero. GFP/RFP ratio change, % at 20 µM. 360,000 compounds, 0.061% hits;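 active means GFP/RFP ratio change of at least 30% with cell ATP level not reduced by more than half and red fluorescence within 50% of control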; further: strong numbers were not always called active
#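 Read-out: GFP/RFP fluorescence ratio; Test system: RFP-PRO-GFP reporter HT1080 cells; Compound dosing: single-point 20 µM compound, 1% DMSO; Times: overnight compound exposure at 37 °C.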
# MT1-MMP act inh RFP: recorded beside MT1-MMP act inh, whose call it bears; RFP signal change, %; measured here: RFP expression control read;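 0 = vehicle wells; hits needed this value within 50% of zero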
# * marks the source's active call; other numbers are inactive results; i = inactive; / = no result given; & = joins results of further samples; [ ] = another dose, or the depositor's remark.
Molecule	PABP polyA inh	Env fusion inh	UUG fidelity	CSC inhib	eIF4H FP inh	Rce1 inhib	MT1-MMP act inh	MT1-MMP act inh RFP
O=C(Cc1ncc(C(F)(F)F)cc1Cl)NCc1cccnc1	5	-9	-11	-2	3	i	-3	3
O=C(c1ccc([N+](=O)[O-])s1)N1CCN(c2cccc(Cl)c2)CC1	0	-7	-9	37	2	i	-1	-14
COc1ccc(-c2ccc3c(c2)S(=O)(=O)c2cccc(C(=O)NCc4ccccc4Cl)c2C3=O)cc1OC	/	33	-17	-5	/	/	4	0
Clc1ccc(-c2nc3ccccn3c2CN2CCSCC2)cc1	0	14	/	1	-3	i	-2	-3
O=c1c(C/C=C/c2ccccc2)c(O)ccn1Cc1cccc(Cl)c1	2	-4	/	1	6	i	-4	2
Cc1ccc2nc(NC(=O)COC(=O)c3ccc(Br)o3)sc2c1	18	/	63	0	31	/	-2	-1
CCCCNS(=O)(=O)c1ccc(OC)cc1	-3	/	-23	7	2	i	0	8
CC(C)(Cc1ccc(O)cc1)NC(=O)CC(=O)N/N=C/c1ccc([N+](=O)[O-])cc1	6	24	/	-5	3	i	-4	-2
OC(c1ccc(Cl)c(Cl)c1)c1ncc(-c2ccccc2F)[nH]1 (stereo unspecified)	/	10	-19	/	/	/	1	-4
Cc1ccc(/C=N/NC(=O)CNC(=O)c2cccs2)o1	-3	3	/	-3	-13	i	1	3
COc1ccccc1CNC(=O)CN1C(=O)NC2(CCCCCCC2)C1=O	/	-6	19	/	/	/	0	-2
Cc1cccc(-n2ncc3c(NCc4cccs4)ncnc32)c1	-6	/	3	35	-13	i	3	0
CC1CC(C)CN(C(=O)CSc2ccsc2[N+](=O)[O-])C1 (stereo unspecified)	-1	8	-10	56	0	i	-6	-4
CNC(=S)NCc1ccc2[nH]c3c(c2c1)CCCC3	17	4	/	-5	15	i	2	6
C#CC(C)(C)NC(=O)c1ccc(-c2ccccc2F)cc1	4	-18	/	-7	2	i	2	-3
C[C@@H]1CCCCO[C@@H](CN(C)Cc2ccc(Cl)c(Cl)c2)[C@@H](C)CN([C@H](C)CO)C(=O)c2cc(NC(=O)Nc3ccccc3)ccc2O1	/	-33[16.7 µM]	-2&16	/	/	/	9	-4
O=C(NCCCNC(=O)c1ccc(Cl)cc1Cl)c1cnccn1	/	10	-2	-7	/	i	2	5
COc1ccc2[nH]c3c(c2c1)CCNC3(C)CCc1ccc(Cl)nc1 (stereo unspecified)	-7	9	/	-6	-16	i	4	8
CC(=O)N1CCC(C(=O)Nc2ccc(S(=O)(=O)N3CCCCC3)cc2)CC1	-12	0	-9	-10	2	i	-2	-1
Cn1nnnc1P(=O)(c1ccccc1)c1ccccc1	-9	/	32	-10	-16	i	3	2

# Next section:
Molecule	PABP polyA inh	Env fusion inh	UUG fidelity	CSC inhib	eIF4H FP inh	Rce1 inhib	MT1-MMP act inh	MT1-MMP act inh RFP
COc1ccc(C)cc1-n1nnnc1SCC(=O)NNC(=O)c1ccc([N+](=O)[O-])cc1	-24	6	/	/	-3	i	0	-1
CC(C(=O)O)N1C(=O)C2C3CC(C2C1=O)C1C(c2ccccc2)c2sc(=O)[nH]c2SC31 (stereo unspecified)	-19	-12	4	-10	2	i	/	/
O=[N+]([O-])c1ccc(S(=O)(=O)N2CCC3(CC2)OCCN3S(=O)(=O)c2cccs2)cc1	/	16	/	-4	/	i	-2	-8
COc1cc(/C=C/C(=O)O)cc(S(=O)(=O)Nc2ccc3nc(SC)sc3c2)c1OC	-1	3	/	-1	4	i	1	2
CC12CCC(C(=O)N(CCCCN3CCN(c4ccccn4)CC3)C1=O)C2(C)C (stereo unspecified)	3	10	0	26	-8	i	2	0
COc1ccc(CNC(=O)c2ccc(-c3ccccc3)cc2)cc1	-11	/	/	3	-3	i	-1	0
O=C(CNC(=O)c1ccco1)Nc1ccc2c(c1)OCCO2	/	-22	/	-11	/	i	-1	1
O=C(NCc1ccccc1)[C@]1(C(F)(F)F)C[C@H](CCc2ccccc2)CCCO1	/	-17	-7	-6	/	i	2	2
COc1ccc(S(=O)(=O)Nc2ccc3c(c2)OCO3)cc1C	-2	-11	5	/	4	i	6	0
COc1ccc(-c2n[nH]c(C)c2-c2ccc(OC)c(OC)c2)c(O)c1	-10	/	-13	43	-8	i	/	/
CN(CCC#N)C(=O)CSc1nc2scc(-c3ccccc3)c2c(=O)[nH]1	2	/	-8	-10	-11	i	8	4
CCN(CC)CCCNC(=S)N1CCN(c2nc(-c3ccc(F)cc3)cs2)CC1	-7	20	-18	93*	-8	i	1	-2
Nc1ccccc1C(=O)Nc1cccc2ccccc12	4	-2	-12	/	7	i	0	4
Nc1c(S(=O)(=O)c2cccc(Cl)c2)c2nc3ccccc3nc2n1/N=C/c1ccc(O)c(O)c1	10	/	/	-10	17	i	/	/
Cc1cc(Nc2ccccc2)nc2cc(O)ccc12	0	-52	-24	5	3	i	2	-5
CCNc1nc(NC(C)C)nc(OCCOC(=O)Nc2ccccc2)n1	-12	/	-10	9	9	i	-8	4
COc1ccc(-c2cccc(NS(=O)(=O)c3ccccc3[N+](=O)[O-])c2)nn1	/	-2	-13	-1	/	i	-1	1
COc1cc(/C=C2\NC(=S)NC2=O)ccc1OCc1cccc(C(=O)O)c1	13	7	-38	-9	12	i	10	7
CC(=O)Nc1cc(NC(C)=O)cc(C(=O)OCC(=O)c2ccc3c(c2)OCO3)c1	/	22	/	-5	/	i	-6	0
CC(=O)NCCCC(=O)NC(CCC(=O)OCc1ccccc1)C(=O)OCc1ccccc1 (stereo unspecified)	1	2	-3	-2	8	i	2	3

# The results go on.
Molecule	PABP polyA inh	Env fusion inh	UUG fidelity	CSC inhib	eIF4H FP inh	Rce1 inhib	MT1-MMP act inh	MT1-MMP act inh RFP
CCC(=O)Nc1ccc2nc(SCC(=O)N3CCCC3)sc2c1	2	/	-3	/	-2	i	1	-1
COc1cc(C(=O)Oc2cccc(C)c2)cc(OC)c1OC	-8	/	-5	-11	-5	i	1	2
O=C(O)COc1ccccc1/C=N/NC(=O)CN1CCN(Cc2ccccc2Cl)CC1	4	-5	-6	-1	-2	i	-3	2
CCCNC(=O)CCNC(=O)[C@H](O)C(C)(C)CO	/	-39	-5	/	/	/	1	7
Cc1cc(C)n2cc(CSCc3ccco3)nc2n1	21	/	-18	-20	15	i	-1	4
Cc1cc(C)n(-c2ccc(NC(=O)C3CCCCN3C(=O)c3occc3C)cc2)n1 (stereo unspecified)	-3	4	-6	0	-8	i	-2	-7
Cc1cccc(NS(=O)(=O)c2ccc(-c3cnc(C4CC4)o3)cc2)c1C	17	-53	-12	/	3	i	2	-12
COC(=O)Cn1ncn2c(cc3oc(C)cc32)c1=O	1	/	-26	4	-7	i	2	2
COc1cccc(N2CCN(Cc3nc(N)nc(Nc4ccccc4)n3)CC2)c1	-8	-36	-26	-9	-4	i	23	1
CC(C)(C)c1csc(NC(=O)c2ccc(Br)o2)n1	8	/	-19	8	4	i	-42	-37
CC1CCCCC1NC(=O)/C(C#N)=C/c1ccc(OCC(N)=O)cc1 (stereo unspecified)	2	-5	18	-24	6	i	-3	-4
CCOc1ccc(OCc2ccc(C(=O)N3CCCC3)o2)cc1	-2	/	-14	-11	-3	i	-5	-5
Cc1nn(-c2ncc(C(F)(F)F)cc2Cl)c(=O)n1-c1c(F)cccc1F	0	14	/	/	-4	i	3	2
COC(=O)c1ccc(/C=C/C(=O)OCC(=O)Nc2cc(C)on2)cc1	/	/	-6	-15	/	/	-2	4
Cc1ccc(S(=O)(=O)c2nc(-c3ccccc3Br)oc2N(C)C)cc1	-7	-16	-12	6	41	i	-5	-2
O=C(NCCO)c1ccc2nc(-c3ccco3)c(-c3ccco3)nc2c1	92*	5	-2	1	87*	i	-5	-11
Cc1ccc(NC(=O)CC2SC(=O)N(c3ccccc3)C2=O)cc1 (stereo unspecified)	-3	-4	-32	0	0	i	5	7
COc1ccc2cc1Oc1ccc(cc1)C[C@H]1c3c(cc(OC)c4c3Oc3c(ccc5c3[C@H](C2)N(C)CC5)O4)CCN1C	/	/	20	105*	/	/	-3	-8
Cc1cn2nc(N)c3ccccc3c2n1	0	-53	8	1	-2	/	1	-1
Cc1cc(C(=O)N/N=C/c2cc([N+](=O)[O-])cc(C)c2O)n[nH]1	-6	35	/	/	10	i	1	2

# Continuation.
Molecule	PABP polyA inh	Env fusion inh	UUG fidelity	CSC inhib	eIF4H FP inh	Rce1 inhib	MT1-MMP act inh	MT1-MMP act inh RFP
CCC(CC)C(=O)Nc1c(C)n(C)n(-c2ccccc2)c1=O	12	16	0	8	-4	i	2	4
CNC(=S)NNC(=O)Cc1ccc(OC)c(OC)c1	-8	/	-21	9	-4	i	1	5
COc1ccccc1C(=O)Nc1ccc(-c2nnc(SCC(=O)O)n2C)cc1	5	17	-10	-12	-5	/	23	5
Cc1ccc(C(=O)N2CCCc3ccccc32)c(F)c1F	6	-53	-5	-4	2	i	-7	-5
Cc1csc2nc3cc(C(N)=O)ccc3c(=O)n12	-1	-13	-14	-6	-1	i	3	4
COC(=O)[C@@H]1C(c2ccccc2)(c2ccccc2)[C@@]1(C)C(=O)OC	-7	0	/	-2	0	i	0	4
Cc1ccc(NC(=O)COC(=O)C2CCC(=O)N2)c(S(=O)(=O)N2CCOCC2)c1 (stereo unspecified)	13	-42	27	-16	-5	i	4	3
C[C@H]1CN([C@@H](C)CO)C(=O)c2cccc(NC(=O)c3ccc(-c4nccs4)cc3)c2O[C@@H]1CN(C)C(=O)Nc1cccc2ccccc12	/	16[16.7 µM]	8&12	4	/	/	2	-2
N#CC1(c2ccccc2)CCC(=NNS(=O)(=O)c2ccccc2)CC1 (stereo unspecified)	/	7	-10	/	/	/	0	-1
CCCCOC(=O)Nc1ccc(C)c(Cl)c1	-3	/	-20	/	2	i	-3	-1
CCC(C)(C)C1CCC(=NNC(=O)c2ccc(Br)o2)CC1 (stereo unspecified)	6	21	/	4	7	i	1	5
O=C(c1cc(F)ccc1F)C1CCCN(C(=O)CSc2ccccn2)C1 (stereo unspecified)	4	3	/	-15	0	i	0	0
CCOC1=C2[C@@H](CN(S(=O)(=O)c3ccc(C)cc3)[C@H]2c2cccc3ccccc23)[C@H]2C(=O)N(C)C(=O)[C@H]2C1	/	-4	-3	/	/	/	-3	1
CC1=NN(C(=O)c2ccc(Br)cc2)C(O)(c2ccccc2)C1 (stereo unspecified)	0	15	-12	22	1	i	5	5
Cc1nc2ccccc2c(=O)n1NC(=O)C1CCC(C(C)(C)C)CC1 (stereo unspecified)	4	6	/	-18	6	i	5	-4
COc1ccc(C(=O)CSc2nnc(-c3ccc(S(=O)(=O)N4CCOCC4)cc3)o2)cc1	-4	-91	-4	-9	3	i	3	4
O=C(C[C@H]1C[C@H](C(=O)N2CCOCC2)[C@@]2(CCC3CCCC3)c3[nH]c4ccc(Cl)cc4c3CCN2C1=O)NCc1ccco1	/	-12	-15	/	/	/	-33	-38
O=C1C(Nc2ccccc2)=C/C(=N/S(=O)(=O)c2cccs2)c2ccccc21	-17	/	-17	112*	-4	i	-3	-36

# Compounds from the list above with a tert-butyl group, in the order listed:
Molecule	PABP polyA inh	Env fusion inh	UUG fidelity	CSC inhib	eIF4H FP inh	Rce1 inhib	MT1-MMP act inh	MT1-MMP act inh RFP
CC(C)(C)c1csc(NC(=O)c2ccc(Br)o2)n1	8	/	-19	8	4	i	-42	-37
Cc1nc2ccccc2c(=O)n1NC(=O)C1CCC(C(C)(C)C)CC1 (stereo unspecified)	4	6	/	-18	6	i	5	-4

# Rows were taken by chance. About 3% of those tested had a hit in this group.
